Assay outcomes as filed in PubChem.
VDR inh – Inhibitors of the vitamin D receptor (VDR): qHTS | AID 504847, 2011 | hit rate 0.93% among 400,000 | Potency, µM, for the others: max response, negative = inhibition, actives largely listed as inhibitors | Vitamin D3 receptor (Homo sapiens), P11473 | VDR-SRC2-3 peptide fluorescence polarization, 2 h; active = well fitted inhibition curve with a large enough effect; inconclusive = small, poorly fitted or top-dose-only effect, or another doubt; inactive = no such curve, though single readings can be large or run the other way; also: series mostly up to about 120 µM
Target sequence (P11473 whole entry, looked up): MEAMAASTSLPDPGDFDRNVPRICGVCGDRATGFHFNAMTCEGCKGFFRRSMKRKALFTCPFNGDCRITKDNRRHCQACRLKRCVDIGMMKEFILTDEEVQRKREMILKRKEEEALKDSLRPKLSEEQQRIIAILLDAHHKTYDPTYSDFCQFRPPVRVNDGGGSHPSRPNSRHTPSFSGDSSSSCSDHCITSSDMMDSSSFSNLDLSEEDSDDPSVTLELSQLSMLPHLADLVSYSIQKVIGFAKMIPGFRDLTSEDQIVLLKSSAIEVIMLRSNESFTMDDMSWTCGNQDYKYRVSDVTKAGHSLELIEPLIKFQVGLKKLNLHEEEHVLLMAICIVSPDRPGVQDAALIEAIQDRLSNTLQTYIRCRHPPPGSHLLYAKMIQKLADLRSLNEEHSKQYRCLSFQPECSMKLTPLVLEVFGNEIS
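FP read-out; VDR + SRC2-3 coactivator peptide; 23 nl compound by pintool; 2 h RT incubation; reagents held at 4 deg C, protected from light.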
* marks the source's active call; other numbers are inactive results; ? = inconclusive; & = joins results of further samples; [ ] = remark or other dose. % is scaled to controls: 0 for no effect and ±100 for the full control effect; potency is read from the fitted curve at half-maximal effect. The list is partial, so the mix of outcomes need not match the whole.

SMILES	VDR inh
CCCOc1ccc(C(=O)O)cc1	5%
NCCCCCc1cn(CC(=O)NCCCCCCCCCCC(=O)N2CCNCC2)nn1	-1%
O=C(NCC1CCCO1)c1ccc(NC(=O)C2C3C=CC(C3)C2C(=O)O)cc1 (centres undefined)	-9%
CC(C)(C)c1cc(C(=O)Nc2cccc3ccccc23)ccn1	4%
Cc1ccc(NC(=O)CN2C(=O)C3(SCC(=O)N3c3cccc(Cl)c3)c3ccccc32)cc1C (centres undefined)	1%
Cc1cccc(CSC(Nc2ccc(F)cc2)=C(C#N)C#N)c1	-13%
N#CCCCn1c(O)c(N=NC(=O)C(O)c2ccccc2)c2ccccc21 (centres undefined)	15%
O=C(NC1CCCCCC1)c1ccc(-n2cnnc2)cc1	-5%
Cn1c(CO)cnc1SCc1ccccc1	9%
O=C(N/N=C\c1ccc(OCC(=O)N2CCCC2)cc1)C(=O)Nc1ccccc1F	6%
Cc1nn(-c2ccccc2)c2c1N(CCCC(=O)NCc1ccc(Cl)cc1)C(=O)CS2	8%
CNc1ccnc(-c2ccccc2OC)n1	1%
CCS(=O)(=O)c1nc(S(=O)(=O)c2ccc(C)cc2)c(N2CCOCC2)s1	1%
COc1cc(/C=C/C(=O)OCC(=O)N(C)Cc2ccccc2)ccc1O	-7%
C=CCc1cccc(/C=N/NC(=O)c2ccccc2Br)c1O	8%
O=C(NNC(=O)C1CCC1)c1ccccc1F	-4%
CCOC(=O)c1cnc(-n2nc(C)cc2C)nc1NC1CCCCC1	0%
N#CC1(NC(=O)CSc2nnc3n2CCCCC3)CCCCC1	-13%
CCc1ccccc1N(C)C(=O)c1cc2c(Cl)nc3ccc(C)cc3c2s1	-8%
COc1ccccc1C1C2=C(CC(C)(C)CC2=O)N(CC(=O)O)C2=C1C(=O)CC(C)(C)C2	-19%
CC(C)CC(=O)Nc1nnc(S(=O)(=O)N2CCc3ccccc32)s1	-10%&-1%
Cc1ccc(/C=N/NC(=O)c2cccs2)s1	6%
CCOC(=O)c1sc2nc(CSCC(=O)OCc3ccc(C(=O)OC)o3)[nH]c(=O)c2c1C	7%
O=C(/C=C\Nc1cccc(F)c1)c1cccs1	-18%
CN(C)C(CNC(=O)CCNC(=O)c1ccccc1Cl)c1ccco1 (centres undefined)	10%
Cc1cc(NC(=O)Cn2nc(C(F)(F)F)c3c2CCC3)no1	-20%
COc1ccccc1NC(=O)c1sc(NC(=O)c2ccco2)c(C#N)c1C	-3%
O=C(CCCNC(=O)c1ccc(Cl)cc1)NCc1ccc(F)cc1	?
COc1ccccc1-c1ccc(Nc2cccc(C(C)=O)c2)nn1	6%
COc1ccc(C(=O)N/C(=C/c2ccco2)C(=O)NCc2ccco2)cc1	-14%
COc1ccc(NC(=S)N2CCCC2)cc1OC	-9%
Cc1ccc(Cc2ccc(C(=O)NNC(N)=S)o2)cc1	1%
CC(=O)c1ccc(OCc2ncc(C(F)(F)F)cc2Cl)cc1	-7%
NS(=O)(=O)c1ccc(NC(=S)NCc2ccco2)cc1	?
COc1ccc(C(=O)N/C(=C\c2cn(C)c3ccccc23)C(=O)NCCCn2ccnc2)cc1	-6%
COc1cc(C(=O)Nc2ccc(OCc3cc(=O)n4ccc(C)cc4n3)cc2)cc(OC)c1OC	15%
CC(=O)c1ccc(NC(=O)CSc2nc(=O)n(CCN3CCOCC3)c3c2CCC3)cc1	-5%
O=C(Nc1ccccc1OCc1cc(=O)n2ccccc2n1)Nc1ccccc1C(F)(F)F	13%
O=C(COc1cccc2ccccc12)Nc1ccc(Cl)cc1C(=O)O	?
O=C(c1ccc(Nc2nccc(-c3cc4ccccc4s3)n2)cc1)N1CCC(N2CCCC2)CC1	45%[activator]
COCCCNC(=O)c1cc(-c2ccc(OC)cc2)nc2n[nH]c(-c3ccc(Cl)cc3)c12	8%
CN1C(C(=O)NCC2CC2)CC2Cn3c(nc4cc5ccccc5cc43)C21 (centres undefined)	15%
O=C(CC(c1ccccc1)c1cc(Cl)ccc1O)N1CCCC1 (centres undefined)	2%
CCN(C(=O)COC(=O)/C=C/c1ccc(OC)c(OC)c1)c1c(N)n(Cc2ccccc2)c(=O)[nH]c1=O	15%
COc1ccccc1CN1CC(C(=O)N(C)Cc2[nH]c3ccccc3c2C)CCC1=O (centres undefined)	9%
COc1cc(OC)cc(-c2nc(N)n[nH]2)c1	2%
CN1C(=O)CC(N2CCN(c3ncccn3)CC2)C1=O (centres undefined)	15%
CC1CCN(CC(=O)N2CCc3ccccc32)CC1	9%
CCC(OC(=O)c1cccs1)C(=O)NC1CCCCC1 (centres undefined)	-11%
COc1cc(CN2CCCC(CO)(Cc3cccc(Cl)c3)C2)cc2c1OCO2 (centres undefined)	?
COc1ccc(/C=C/C(=O)c2ccc3c(c2)OCO3)cc1OC	-14%
CC(=O)C(C)=O	-3%
Cn1c(=O)c2ncn(C)c2n(C)c1=O	-7%
N#Cc1cc(S(=O)(=O)c2ccc(F)cc2)c(N)[nH]c1=O	7%
Cc1cnc(CNC(=O)c2ccc(OC3CCN(C(=O)C4CC4)CC3)cc2)cn1	-10%
COc1ccc(-c2ccc(SCC(=O)N3CCOCC3)nn2)cc1OC	-1%
CCOc1ccc(NC(=O)CN(C)CC(=O)Nc2cccc(Cl)c2C)cc1OCC	9%
CCCOCC(O)COc1ccccc1C(=O)N1CCOCC1 (centres undefined)	14%
Cc1cccc(-n2ncc(C(=O)NCc3ccco3)c2C2CCN(C(=O)OC(C)(C)C)CC2)c1	12%
CCCN1C(=O)C(Cc2nc3ccccc3c(=O)n2-c2cccc(C)c2)c2ccccc21 (centres undefined)	-1%
(continued)
SMILES	VDR inh
COc1ccc2cc(CO)c(Cl)nc2c1	-15%
COc1ccc(NC(=O)C(CC(=O)O)C(C)c2ccccc2)cc1 (centres undefined)	?
Cc1cccc(-c2cc3nc(C)cc(NCCCN(C)C)n3n2)c1	5%
Nc1c(C(=O)CSc2nnc(-c3ccccc3)o2)c(=O)[nH]c(=O)n1C1CC1	-2%
COCCN(C(=O)c1cc(CN2C(=O)c3ccccc3C2=O)ccc1OC)c1c(N)n(CC(C)C)c(=O)[nH]c1=O	-7%
CCOc1ccc(CCNC(=O)c2cnc3sc(N4CCCC4)nn3c2=O)cc1	14%
CC(=O)/C=C(\C)Nc1ccccc1O	11%
Cc1cccc(N2CCN(C(=O)C3CCN(S(=O)(=O)c4c(C)noc4/C=C/c4ccccc4F)CC3)CC2C)c1 (centres undefined)	8%
COc1ccc(/C=N/NC(=O)c2nonc2N)cc1OC	-13%
O=C(OCn1nnc2ccccc2c1=O)c1cc(-c2ccccc2Cl)nc2ccccc12	-1%
CC(C)NC(=O)N1CC[C@@]2(CCCN(C(=O)c3cnccn3)C2)C1	3%
COC(=O)c1cc(COC(=O)c2ccc(OC)c(S(=O)(=O)N3CCCC3)c2)oc1C	6%
CCc1ccc(-c2ccc(SCC(=O)Nc3nnc(C)s3)nn2)cc1	-3%
Clc1cc(Cl)c2nc(N3CCOCC3)sc2c1	10%
Cc1cc(C)n(-c2nc3cc(Cl)ccc3nc2N2CCN(c3ccccc3F)CC2)n1	2%
O=C(NNC(=O)c1ccc2ccccc2c1)c1cccc(Br)c1	0%
Cc1cccc(CNc2ncncc2-c2ccc3c(c2)OCO3)c1	?
COc1cc2c(cc1OC)-c1cc(NC3CCCC3)nc(=O)n1CC2	1%
Cc1ccsc1C(=O)OCC(=O)NCc1ccco1	-22%
COCc1n[nH]c(=S)n1-c1cccc2ccccc12	-8%
Cc1nc(-c2cccnc2)sc1C(=O)N/N=C/c1ccccc1Cl	-2%
CC(=O)NCC(=O)N(Cc1ccco1)C1(C(=O)NC2CCCCC2)CCCCC1	?
CCCC[C@@H]1CNCCN1CCc1cccc(F)c1	0%
COc1ccc(CCNS(=O)(=O)c2cn(C)c(=O)n(C)c2=O)cc1OC	7%
CCCCC(=O)Nc1nnc(C)s1	2%
COc1ccc(NC(=O)CC2SC(N)=NC2=O)c([N+](=O)[O-])c1 (centres undefined)	?
COc1ccc(OCCC(=O)OCC(=O)NCc2ccccc2OC)cc1	-9%
COc1ccc(OC)c(C(=O)CC2(O)C(=O)N(Cc3ccccc3C)c3ccccc32)c1 (centres undefined)	-13%
CC(NC(=O)COC(=O)C1(C)CC1(Cl)Cl)c1ccccc1 (centres undefined)	17%
CCC(C(=O)Nc1ccc(OC)c(Cl)c1)c1ccccc1 (centres undefined)	3%
Fc1ccc(Nc2nc(-c3cccnc3)nc3ccccc23)cc1	-3%
CC(=O)c1ccc(NC(=O)COC(=O)c2c3c(nc4ccccc24)/C(=C\c2cccs2)CCC3)cc1	2%
COc1ccc(CCNS(=O)(=O)c2cc3c(cc2C)NC(=O)CO3)cc1OC	-16%
Cc1ccc(C(=O)O/N=C\c2ccc(N3CCCCC3)c([N+](=O)[O-])c2)cc1	-10%
O=C(COC(=O)CCCNC(=O)c1ccc(Cl)cc1)Nc1cc(Cl)ccc1Cl	-1%
Cc1cc(C(=O)N/N=C/c2cc(N=Nc3ccccc3)ccc2O)n[nH]1	-5%
Cc1ccc(C(C)C)c(OCC(=O)Nc2cc(-c3nc4ccccc4[nH]3)ccc2C)c1	10%
CCOc1ccccc1NC(=O)Cn1c(=O)oc2ccccc21	-10%&13%
O=C(Nn1c(C2CCCCC2)nc2ccccc2c1=O)c1cc(Cl)ccc1[N+](=O)[O-]	-7%
C=CCn1c(C)cc(C2=NNC(=NCc3ccccc3)SC2)c1C	-3%
Fc1ccccc1NC(=S)NCc1ccc(Cl)cc1	1%
Cc1nc(SCC(=O)NC2CCS(=O)(=O)C2)c(C#N)c(C)c1C (centres undefined)	-10%
O=C1CC(c2ccccc2)Oc2ccc(Cl)cc21 (centres undefined)	?
O=C1CCn2c1c(O)c1ccccc1c2=O	-3%
CC1(C)CCc2cc(S(=O)(=O)N3CCN(c4nc(-c5cccs5)nc5ccccc45)CC3)ccc2O1	-8%
C/C=C/c1ccc(OCCCNCC(C)O)c(OC)c1 (centres undefined)	11%
C=CCn1c(=S)[nH]c2sc3c(c2c1=O)CCCC3	-20%
O=C(CSc1nc2c(c(=O)n1-c1ccc(Br)cc1)SCC2)NCc1ccco1	2%
COc1ccc(S(=O)(=O)Nc2ccc(S(=O)(=O)Nc3nc(C)cc(C)n3)cc2)cc1OC	1%
Cc1ccccc1Cn1nnc(C(=O)Nc2cccc(C)c2C)c1N	-17%
CN(C)C(CNC(=O)c1ccc(C2SCCS2)cc1)c1ccccc1 (centres undefined)	19%
COc1ccc(C(O)P(=O)(OCCC(C)C)c2ccc(N(C)C)cc2)cc1 (centres undefined)	6%
Cc1nc2cc(F)ccc2n1C1CCN(C(=O)c2ccc(F)cc2F)CC1	-2%
CC1CCCCN1S(=O)(=O)c1ccc(C(=O)Nc2sccc2C(N)=O)cc1 (centres undefined)	-9%
CCN1CCN(c2nc3ccccc3nc2C(C#N)C(=O)OCc2ccccc2)CC1 (centres undefined)	?
O=C(NNS(=O)(=O)c1ccc(F)cc1)c1ccc2c(c1)OCO2	14%
O=C(N/N=C/c1ccco1)c1cccc([N+](=O)[O-])c1	9%
O=C(CCN1c2ccccc2Sc2ccccc21)Nc1ccccc1	-3%
O=C(NC1CCSC1=O)c1ccc(Oc2cccc(C(F)(F)F)c2)nc1 (centres undefined)	-7%
Cc1nn2c(C)c(C(=O)NCC(C)c3ccccc3)cnc2c1-c1ccccc1 (centres undefined)	2%

2 entries drawn at random from those above, as already listed:
SMILES	VDR inh
C/C=C/c1ccc(OCCCNCC(C)O)c(OC)c1 (centres undefined)	11%
COc1ccc(S(=O)(=O)Nc2ccc(S(=O)(=O)Nc3nc(C)cc(C)n3)cc2)cc1OC	1%

More compounds.
SMILES	VDR inh
C=CCSc1nnc(-c2nnc(SCC=C)n2CC)n1CC	5%
CC(=O)c1ccc(NC(=O)CSCCO)cc1	-14%
CCCn1c(NCc2ccc3c(c2)OCO3)nc2ccccc21	3%
CC(C)n1c(SCC(=O)Nc2nc3ccccc3s2)nc2c1c(=O)n(C)c(=O)n2C	-10%
O=C(CNc1ccc(C(F)(F)F)cc1)Nc1cccc(S(=O)(=O)N2CCCC2)c1	3%
COC(=O)C1CCN(C(=O)c2ccc(NC(C)=O)cc2)CC1	0%

Compounds above with two or more sulfur atoms (15):
SMILES	VDR inh
CCS(=O)(=O)c1nc(S(=O)(=O)c2ccc(C)cc2)c(N2CCOCC2)s1	1%
CC(C)CC(=O)Nc1nnc(S(=O)(=O)N2CCc3ccccc32)s1	-10%&-1%
Cc1ccc(/C=N/NC(=O)c2cccs2)s1	6%
CCOC(=O)c1sc2nc(CSCC(=O)OCc3ccc(C(=O)OC)o3)[nH]c(=O)c2c1C	7%
NS(=O)(=O)c1ccc(NC(=S)NCc2ccco2)cc1	?
CCc1ccc(-c2ccc(SCC(=O)Nc3nnc(C)s3)nn2)cc1	-3%
Cc1nc(SCC(=O)NC2CCS(=O)(=O)C2)c(C#N)c(C)c1C (centres undefined)	-10%
CC1(C)CCc2cc(S(=O)(=O)N3CCN(c4nc(-c5cccs5)nc5ccccc45)CC3)ccc2O1	-8%
C=CCn1c(=S)[nH]c2sc3c(c2c1=O)CCCC3	-20%
O=C(CSc1nc2c(c(=O)n1-c1ccc(Br)cc1)SCC2)NCc1ccco1	2%
COc1ccc(S(=O)(=O)Nc2ccc(S(=O)(=O)Nc3nc(C)cc(C)n3)cc2)cc1OC	1%
CN(C)C(CNC(=O)c1ccc(C2SCCS2)cc1)c1ccccc1 (centres undefined)	19%
CC1CCCCN1S(=O)(=O)c1ccc(C(=O)Nc2sccc2C(N)=O)cc1 (centres undefined)	-9%
C=CCSc1nnc(-c2nnc(SCC=C)n2CC)n1CC	5%
CC(C)n1c(SCC(=O)Nc2nc3ccccc3s2)nc2c1c(=O)n(C)c(=O)n2C	-10%
